# From PubChem BioAssay
# PD-1 reversal: activators reversing PD-1 mediated T-cell inhibition; primary human CD4 T cells, PD-L1 beads, CellTiter-Glo 96 h; AID 2316; activation, % (concentration not given with the values); 29,000 tested, under 10 active;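 active = replicate mean of 50% or more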;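 note: 0% = median vehicle wells and 100% = positive control; 100 nL library stock added to about 50 µL; numbers are from one replicate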
# YB-1 expr inh: YB-1 expression inhibition; delta delta Cp (YB-1 minus CDIP) (no concentration beside the values); 30,000 compounds, 0.37% hits; U2OS, qRT-PCR YB-1 vs CDIP delta delta Cp, 16 h; active compounds read high; zero = DMSO, each unit about twofold; AID 434959;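 active = delta delta Cp rounded down to an integer at or above 3, about 3 SD of DMSO wells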;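 note: higher means less YB-1 transcript or more CDIP transcript relative to DMSO; stock transfer was 100 nL into about 100 µL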
# MITF inhib: blocks MITF activity; TRPM1 promoter luciferase, luminescence, 24 h; inhibition, % (no concentration beside the values); 37,000 compounds, 0.28% hits; AID 2240;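 active = most replicates at 85% or more, or half of them and the mean; inconclusive = half reach 85% but not the mean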;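 note: human melanocyte line stably carrying TRPM1 promoter luciferase reporter; 0% = vehicle wells and 100% = a positive control; the first replicate is given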
# Shh pathway inh: blocks Sonic Hedgehog signaling. Shh-LIGHT2 Gli-luciferase reporter, 30 h. inhibition, % (test concentration not listed). 22,000 compounds, 2.1% hits. AID 2313;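 active = replicate mean of 65% or more; inconclusive = mean lower but half the replicates past it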;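 note: pathway switched on by Shh-conditioned medium diluted 1 in 25 in low serum; 100 nL library stock added to about 40 µL; 0% = median of neutral wells and 100% = positive control level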
# * marks the source's active call; other numbers are inactive results; u = inconclusive; x = no result given. A portion of the library. The share of hits here may be higher or lower than overall.
SMILES,PD-1 reversal,YB-1 expr inh,MITF inhib,Shh pathway inh
COc1ccc(NS(=O)(=O)c2ccc(N)cc2)nn1,x,0.0656,-0.5,u
COc1ccc(NC(=O)Nc2cccc3c2O[C@@H](CN(C)Cc2ccc(-c4ccccc4)cc2)[C@@H](C)CN([C@@H](C)CO)C3=O)cc1,x,0.19,-10.1,-7.8
CCCC[C@H](O)[C@@H]1CC(OC)=CC(=O)O1,x,1.09,x,1.9
C[C@@H]1CN([C@@H](C)CO)C(=O)Cc2cc(NC(=O)C3CCCCC3)ccc2O[C@@H]1CN(C)Cc1ccc(Oc2ccccc2)cc1,x,0.113,9.8,u
CC(C)NC(=O)N(C)C[C@@H]1Oc2ccc(NC(=O)CCC(F)(F)F)cc2CC(=O)N([C@H](C)CO)C[C@H]1C,x,-0.027,-7.1,-9.5
COC(=O)C1=C(NC(=O)c2ccccc2C)CCS1,1.7,0.0532,2.9,x
COc1ccc(NC(=O)Cc2c(OC)ccc3cc(Br)ccc23)c(OC)c1,-1.9,x,37.4,x
C[C@H]1CN([C@@H](C)CO)C(=O)Cc2cc(NC(=O)CCN3CCOCC3)ccc2O[C@H]1CN(C)C(=O)Nc1ccc(F)cc1,-0.8,-0.217,-17.0,x
C[C@H](CO)N1C[C@H](C)[C@H](CN(C)C(=O)NC2CCCCC2)Oc2c(NS(C)(=O)=O)cccc2C1=O,x,0.169,2.7,-21.6
COc1ccc(NC(=O)Nc2ccc3c(c2)C(=O)N([C@H](C)CO)C[C@H](C)[C@@H](CN(C)Cc2ccccc2)OCCCC[C@@H](C)O3)cc1,1.1,-0.633,-4.8,-51.5
CS(=O)(=O)N(CC(=O)Nc1ccc(Cl)c(Cl)c1)c1cc(Cl)cc(Cl)c1,-2.7,x,11.6,x
C[C@H](CO)N1C[C@H](C)[C@@H](CN(C)CC2CC2)Oc2c(NC(=O)Nc3ccccc3)cccc2C1=O,-0.3,-0.0132,-3.5,-28.8
CCOC(=O)c1cnn(-c2nc(C)cc(C)n2)c1N,0.1,-0.122,-15.2,-18.3
Cc1noc(C)c1NC(=O)Nc1cccc2c1O[C@H](CN(C)C(=O)NC1CCCCC1)[C@@H](C)CN([C@H](C)CO)C2=O,-1.4,-0.26,-12.9,-23.2
CC(C)CC1NC(=O)C(C)NC1=O (configuration not stated),1.9,-0.277,8.4,-14.1
COc1ccc(Cl)cc1NC(=O)CSc1nnc(-c2ccccc2)n1C,-1.3,x,8.4,x
Cc1c(NC(=O)CN(c2cccc(F)c2)S(C)(=O)=O)c(=O)n(-c2ccccc2)n1C,0.9,x,6.0,x
C[C@@H]1CN([C@@H](C)CO)C(=O)c2cccc(N(C)C)c2O[C@H]1CN(C)Cc1ccc(Cl)c(Cl)c1,x,0.363,9.1,3.1
CC(=O)Nc1sccc1C(=O)NCc1ccco1,2.3,x,2.1,x
O=C(CN1CCCc2ccccc21)Nc1ccc(Cl)c(Cl)c1,-0.1,0.276,45.5,37.2
CC(=O)O[C@@]1(C)[C@@H]2CC(=C(C)C)C(=O)C[C@@]2(C)CC[C@H]1OC(=O)C1(C)OC1C (some centres not stated),-1.1,-0.31,-2.3,20.5
CNC[C@@H]1OCCCC[C@@H](C)Oc2ccc(NS(=O)(=O)c3ccc(Cl)cc3)cc2C(=O)N([C@H](C)CO)C[C@@H]1C,0.4,0.0272,23.8,4.3
Cc1ccc(C(=O)NC(NCc2ccco2)(C(F)(F)F)C(F)(F)F)cc1,0.0,-0.984,-9.3,2.3
CC1=C(C(=O)OC2CCCN(C)C2)C2(O)C(=O)c3ccccc3C2(O)N1 (configuration not stated),1.6,0.0361,6.7,x
O=C1C(=O)N(Cc2cccnc2)C(c2ccc(Br)cc2)C1C(=O)c1cccs1 (configuration not stated),2.6,x,-0.1,x

# Remaining list, next part
SMILES,PD-1 reversal,YB-1 expr inh,MITF inhib,Shh pathway inh
C[C@H](CO)N1C[C@H](C)[C@@H](CN(C)Cc2ccc(-c3ccccc3)cc2)Oc2c(NC(=O)C3CCCCC3)cccc2C1=O,x,-0.0113,21.9,23.7
CNC[C@H]1Oc2ccc(NC(=O)NC(C)C)cc2C(=O)N([C@H](C)CO)C[C@H]1C,x,-0.0842,-6.5,-29.2
Cc1noc(C)c1NC(=O)Nc1ccc2c(c1)CC(=O)N([C@H](C)CO)C[C@@H](C)[C@@H](CN(C)C(=O)NC(C)C)O2,1.2,-0.00789,-8.4,-2.9
CCOc1nc(NCCO)nc(Nc2ccc(OC)cc2OC)n1,-1.0,x,-3.1,x
Cc1noc(C)c1S(=O)(=O)Nc1ccc2c(c1)C(=O)N([C@H](C)CO)C[C@H](C)[C@@H](CN(C)S(=O)(=O)c1cn(C)cn1)O2,x,-0.00369,-8.7,-44.0
COc1ccc(S(=O)(=O)N(C)C[C@H]2Oc3ccc(NC(=O)Cc4cn(C)c5ccccc45)cc3CC(=O)N([C@@H](C)CO)C[C@@H]2C)cc1,0.2,0.0438,18.6,-4.4
C[C@H]1CN([C@@H](C)CO)C(=O)c2cc(NS(C)(=O)=O)ccc2O[C@H]1CN(C)Cc1ccccc1,1.4,0.324,-11.1,-6.7
C[C@H]1CN([C@@H](C)CO)C(=O)c2cc(NS(=O)(=O)c3ccccc3)ccc2O[C@@H]1CN(C)C,x,0.17,1.9,x
O=C(CCCCCN1C(=O)c2cccc3cccc(c23)C1=O)NO,-20.3,-0.207,71.2,90.6*
CC(=O)Nc1ccc(NC(=O)CNS(=O)(=O)c2c(C)cc(C)cc2C)cc1,4.7,x,-4.1,x
COC(=O)c1ccc(NC(=O)CN(C)S(=O)(=O)c2ccc3ccccc3c2)cc1,2.5,x,25.0,x
O=C1C(SCCO)=C(SCCO)C(=O)c2ccccc21,x,0.973,103.2*,104.3*
C[C@H]1CN([C@@H](C)CO)C(=O)c2cccc(NS(=O)(=O)c3ccccc3)c2O[C@@H]1CN(C)S(=O)(=O)c1ccc(F)cc1,-0.6,0.16,-11.3,7.7
Cc1noc(C)c1NC(=O)Nc1ccc2c(c1)C(=O)N([C@@H](C)CO)C[C@@H](C)[C@@H](CN(C)C(=O)Nc1c(C)noc1C)O2,0.4,-0.45,-4.6,42.6
Cc1ccc(S(=O)(=O)Nc2ccc3c(c2)C(=O)N([C@H](C)CO)C[C@H](C)[C@@H](CN(C)C)OCCCC[C@@H](C)O3)cc1,x,-0.103,-28.3,2.1
C[C@@H]1O[C@@H](O[C@H]2[C@@H]3C=CO[C@@H](O[C@@H]4O[C@H](CO)[C@@H](O)[C@H](O)[C@H]4O)[C@@H]3[C@@]3(CO)O[C@@H]23)[C@H](OC(=O)/C=C/c2ccccc2)[C@H](OC(=O)/C=C/c2ccccc2)[C@H]1O,-0.6,0.928,8.2,5.7
C[C@@H]1CN([C@@H](C)CO)C(=O)c2cccc(NC(=O)c3cnccn3)c2O[C@H]1CN(C)CC1CCCCC1,3.5,-0.753,0.0,9.8
Cc1ccc(S(=O)(=O)N(C)C[C@@H]2Oc3ccc(NC(=O)Nc4cccc5ccccc45)cc3CC(=O)N([C@@H](C)CO)C[C@@H]2C)cc1,x,0.481,25.0,11.9
C[C@@H]1CCCCO[C@@H](CN(C)Cc2ccccc2)[C@@H](C)CN([C@H](C)CO)C(=O)c2cc(NC(=O)c3ccncc3)ccc2O1,-0.5,0.297,-3.0,-19.8
COc1ccc(N=Cc2c(O)ccc3oc4c(c23)CCCC4)cc1,0.3,-0.155,9.6,0.0
Cc1cc2ncc(C(=O)/C=C/N(C)C)c(C)n2n1,-0.2,0.0796,-20.3,-0.9
C[C@H]1CN([C@@H](C)CO)C(=O)c2cc(NC(=O)C3CC3)ccc2O[C@H]1CN(C)C,x,0.166,1.1,-69.5
C[C@@H]1CN([C@H](C)CO)C(=O)c2cccc(NC(=O)c3ccncc3)c2O[C@H]1CN(C)Cc1ccc2c(c1)OCO2,x,-0.31,3.4,-6.4
C[C@@H]1CN([C@H](C)CO)C(=O)c2cccc(NC(=O)Nc3ccc(C(F)(F)F)cc3)c2O[C@H]1CN(C)S(C)(=O)=O,-7.5,0.0772,15.1,12.1
C[C@@H]1CCCCO[C@@H](CN(C)C(=O)Nc2ccc(F)cc2)[C@@H](C)CN([C@H](C)CO)C(=O)c2cc(N(C)C)ccc2O1,x,-0.107,3.7,3.2

# Remaining list, next part.
SMILES,PD-1 reversal,YB-1 expr inh,MITF inhib,Shh pathway inh
C[C@@H]1CN([C@H](C)CO)C(=O)c2cccc(NC(=O)NC3CCCCC3)c2O[C@H]1CN(C)Cc1ccc(C(=O)O)cc1,0.7,-0.422,-1.3,10.6
C[C@H](CO)N1C[C@H](C)[C@H](CN(C)S(=O)(=O)c2ccc(Cl)cc2)Oc2ccc(NS(=O)(=O)c3cccs3)cc2C1=O,-1.3,-0.194,-10.4,x
COc1ccc(NC(=O)Nc2ccc3c(c2)CC(=O)N([C@H](C)CO)C[C@@H](C)[C@@H](CN(C)C(=O)Nc2ccccc2)O3)cc1,0.9,0.44,-5.1,23.5
O=c1[nH]nc(SCc2ccc(Cl)cc2)n1C1CC2C=CC1C2 (configuration not stated),0.1,-0.29,-17.9,4.5
COc1ccc(NC(=O)Nc2ccc3c(c2)CC(=O)N([C@@H](C)CO)C[C@H](C)[C@H](CN(C)S(=O)(=O)c2cccs2)O3)cc1,x,-0.26,-9.2,1.1
COC(=O)c1cc(C)sc1NC(=O)COc1ccccc1,-4.1,x,-13.5,x
C[C@H](CO)N1C[C@H](C)[C@H](CN(C)C)Oc2c(NC(=O)c3cnccn3)cccc2C1=O,1.5,0.223,-2.8,-5.6
COC(=O)C1c2c(oc3cc(CO)cc(O)c3c2=O)C=CC1O (configuration not stated),-13.3,0.372,-18.6,29.8
CC(C)(C)N1Sc2ccccc2NC1=S,6.8,-0.0116,9.2,-31.3
C[C@H](CO)N1C[C@H](C)[C@@H](CN(C)C)Oc2ccc(NC(=O)Nc3ccc(F)cc3)cc2C1=O,-0.6,0.259,8.2,-32.1
C[C@H](CO)N1C[C@H](C)[C@H](CN(C)S(=O)(=O)c2ccc(Cl)cc2)Oc2ccc(NC(=O)CCCCCC(=O)Nc3ccccc3N)cc2CC1=O,-2.5,0.0772,11.3,x
C[C@@H]1CN([C@@H](C)CO)C(=O)c2cccc(NC(=O)Nc3cccc4ccccc34)c2O[C@@H]1CN(C)Cc1ccc(C(F)(F)F)cc1,0.0,-0.333,-14.1,17.2
C[C@H]1CN([C@@H](C)CO)C(=O)c2cccc(N(C)C)c2O[C@H]1CN(C)S(C)(=O)=O,x,-0.249,-2.9,-54.6
O=C1c2ccccc2C(O)(c2ncc[nH]2)N1CCc1ccccc1 (configuration not stated),0.8,0.527,15.6,-14.7
COc1ccc(C(=O)NC(CC(=O)O)c2ccc(Cl)cc2)cc1 (configuration not stated),1.9,x,0.5,x
C[C@H](CO)N1C[C@H](C)[C@H](CN(C)S(=O)(=O)c2ccccc2)Oc2ccc(NC(=O)NC3CCCCC3)cc2CC1=O,2.6,-0.0571,-6.3,15.5
C[C@H](CO)N1C[C@H](C)[C@@H](CN(C)S(C)(=O)=O)Oc2ccc(NC(=O)Cc3cn(C)c4ccccc34)cc2C1=O,1.9,0.56,10.5,-6.4
COc1ccc(S(=O)(=O)N(C)C[C@H]2Oc3ccc(NS(=O)(=O)c4cn(C)cn4)cc3CC(=O)N([C@H](C)CO)C[C@H]2C)cc1,1.6,-0.44,-8.1,-10.0
CCN1CCN(C(=O)C2CCCN2S(=O)(=O)c2cccc3nsnc23)CC1 (configuration not stated),3.5,x,1.2,x
COc1ccc(OC)c(C(C)NC(=O)Nc2cccc([N+](=O)[O-])c2)c1 (configuration not stated),-1.7,x,17.2,x
C[C@@H]1CN([C@@H](C)CO)C(=O)c2cccc(NS(=O)(=O)c3ccc(F)cc3)c2O[C@@H]1CN(C)Cc1ccc(Oc2ccccc2)cc1,-1.1,-0.287,-2.0,15.6

# Compounds from the list above that contain two or more sulfur atoms:
SMILES,PD-1 reversal,YB-1 expr inh,MITF inhib,Shh pathway inh
Cc1noc(C)c1S(=O)(=O)Nc1ccc2c(c1)C(=O)N([C@H](C)CO)C[C@H](C)[C@@H](CN(C)S(=O)(=O)c1cn(C)cn1)O2,x,-0.00369,-8.7,-44.0
O=C1C(SCCO)=C(SCCO)C(=O)c2ccccc21,x,0.973,103.2*,104.3*
C[C@H]1CN([C@@H](C)CO)C(=O)c2cccc(NS(=O)(=O)c3ccccc3)c2O[C@@H]1CN(C)S(=O)(=O)c1ccc(F)cc1,-0.6,0.16,-11.3,7.7
C[C@H](CO)N1C[C@H](C)[C@H](CN(C)S(=O)(=O)c2ccc(Cl)cc2)Oc2ccc(NS(=O)(=O)c3cccs3)cc2C1=O,-1.3,-0.194,-10.4,x
COc1ccc(NC(=O)Nc2ccc3c(c2)CC(=O)N([C@@H](C)CO)C[C@H](C)[C@H](CN(C)S(=O)(=O)c2cccs2)O3)cc1,x,-0.26,-9.2,1.1
CC(C)(C)N1Sc2ccccc2NC1=S,6.8,-0.0116,9.2,-31.3
COc1ccc(S(=O)(=O)N(C)C[C@H]2Oc3ccc(NS(=O)(=O)c4cn(C)cn4)cc3CC(=O)N([C@H](C)CO)C[C@H]2C)cc1,1.6,-0.44,-8.1,-10.0
CCN1CCN(C(=O)C2CCCN2S(=O)(=O)c2cccc3nsnc23)CC1 (configuration not stated),3.5,x,1.2,x
